KCNQ2 enhance – potentiators of rat KCNQ2 potassium channel; Potassium voltage-gated channel subfamily KQT member 2 (Rattus norvegicus), O88943; CHO-K1 KCNQ2, FluxOR thallium flux fluorescence; hits give high values; B-score at 10 µM; actives 0.54% (n = 310,000);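 active = fluorescence ratio B-score at least 3 SD of library B-scores, with initial fluorescence B-score within 3 SD, cut at about 5.3 in these data; same plate scores as AID 2156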;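 also: B-score of peak minus minimum over baseline fluorescence ratio after K+ and Tl+ stimulus; positive B-score means potentiation of KCNQ2 with more thallium influx and brighter signal; only the inactives scoring about 0 or higher are listed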
Target sequence (O88943 whole entry, looked up): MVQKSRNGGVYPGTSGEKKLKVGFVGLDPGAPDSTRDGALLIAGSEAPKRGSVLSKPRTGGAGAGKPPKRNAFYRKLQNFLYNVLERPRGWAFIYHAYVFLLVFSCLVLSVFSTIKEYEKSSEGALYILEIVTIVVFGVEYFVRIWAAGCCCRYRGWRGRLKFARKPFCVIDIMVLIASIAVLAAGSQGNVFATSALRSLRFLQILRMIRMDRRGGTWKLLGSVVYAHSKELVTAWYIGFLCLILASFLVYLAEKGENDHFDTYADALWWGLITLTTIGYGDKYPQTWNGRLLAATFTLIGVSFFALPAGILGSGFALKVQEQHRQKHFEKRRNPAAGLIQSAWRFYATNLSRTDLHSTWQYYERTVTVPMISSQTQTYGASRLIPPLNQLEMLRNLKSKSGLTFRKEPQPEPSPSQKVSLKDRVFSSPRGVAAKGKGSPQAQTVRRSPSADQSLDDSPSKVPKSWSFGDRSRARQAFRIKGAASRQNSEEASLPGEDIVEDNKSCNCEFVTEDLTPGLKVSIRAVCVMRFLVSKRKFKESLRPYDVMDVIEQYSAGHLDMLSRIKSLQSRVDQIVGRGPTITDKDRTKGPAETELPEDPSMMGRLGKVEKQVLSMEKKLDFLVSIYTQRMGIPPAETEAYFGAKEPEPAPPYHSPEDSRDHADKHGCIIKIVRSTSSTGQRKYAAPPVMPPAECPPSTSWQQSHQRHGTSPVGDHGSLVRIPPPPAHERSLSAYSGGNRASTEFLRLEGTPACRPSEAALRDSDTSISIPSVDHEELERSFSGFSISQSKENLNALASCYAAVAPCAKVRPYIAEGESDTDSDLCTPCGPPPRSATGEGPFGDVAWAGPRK
KCNQ2 enhance baseline – also measured in KCNQ2 enhance; calls as there; B-score; compound at 10 µM; measured here: initial fluorescence intensity artifact check;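 brightness before thallium and not channel activity; 0 = typical well and far values either way flag optical interference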
Numbers without * were called inactive. A portion of the library; the hit share may differ from the screen's.

1	CC(Oc1ccccc1)C(=O)NC1CCN(Cc2ccccc2)CC1 (stereo not given)
2	CS(=O)(=O)CCC(C(=O)n1nnc2ccccc21)N1C(=O)c2ccccc2C1=O (stereo not given)
3	CC1CCN(S(=O)(=O)c2cccc(C(=O)NCC3CCCO3)c2)CC1 (stereo not given)
4	CCc1c(C(=O)N/N=C/c2ccc(C)o2)csc1C
5	CCOC(=O)CSc1nc2ccccc2c(=O)n1CC1COc2ccccc2O1 (stereo not given)

| screen / no. | 1 | 2 | 3 | 4 | 5 |
| --- | --- | --- | --- | --- | --- |
| KCNQ2 enhance | 0.3 | 1.2 | 0.06 | 0.08 | 1.2 |
| KCNQ2 enhance baseline | 0.68 | 0.13 | 0.09 | -0.07 | -1.5 |

6	C=C1Cn2c(nnc2-c2ccc(Cl)cc2)S1
7	CCn1c(SCC(=O)N2CCCCC2C)nc2c1c(=O)n(C)c(=O)n2C (stereo not given)
8	COC(=O)c1ccccc1S(=O)c1snnc1C (stereo not given)
9	O=c1nc(SCc2ccccc2Cl)nc(-c2ccc(Cl)cc2)[nH]1
10	Cc1oc2c(c(C)cc3oc(=O)c(CC(=O)NCC(=O)NCC(=O)O)c(C)c32)c1C

| screen / no. | 6 | 7 | 8 | 9 | 10 |
| --- | --- | --- | --- | --- | --- |
| KCNQ2 enhance | 0.32 | 1.6 | 0.98 | 11* | 0.02 |
| KCNQ2 enhance baseline | 0.07 | -0.97 | -0.04 | -1.9* | -1.7 |

11	COc1ccc(C2(C)NC(=O)N(CC(=O)NCc3ccccc3)C2=O)cc1OC (stereo not given)
12	CCc1ccc(NC2=NCC(=O)N2c2ccc3c(c2)OCCO3)cc1
13	COc1ccc2c(=O)c(C(=O)NCc3ccccc3)c[nH]c2c1
14	O=C(CN1CCN(S(=O)(=O)c2ccc(F)cc2)CC1)Nc1ccc2c(c1)OCCO2
15	COc1ccc(NS(=O)(=O)c2ccc(O)c(C(=O)OCC(=O)NC(C)C3CC4CCC3C4)c2)cc1 (stereo not given)

| screen / no. | 11 | 12 | 13 | 14 | 15 |
| --- | --- | --- | --- | --- | --- |
| KCNQ2 enhance | 0.03 | 0.05 | 0.18 | 1.2 | 3.7 |
| KCNQ2 enhance baseline | -0.16 | -0.78 | 1.3 | 0.02 | -2.9 |

Molecules listed so far with sulfur (10):
2	CS(=O)(=O)CCC(C(=O)n1nnc2ccccc21)N1C(=O)c2ccccc2C1=O (stereo not given)
3	CC1CCN(S(=O)(=O)c2cccc(C(=O)NCC3CCCO3)c2)CC1 (stereo not given)
4	CCc1c(C(=O)N/N=C/c2ccc(C)o2)csc1C
5	CCOC(=O)CSc1nc2ccccc2c(=O)n1CC1COc2ccccc2O1 (stereo not given)
6	C=C1Cn2c(nnc2-c2ccc(Cl)cc2)S1
7	CCn1c(SCC(=O)N2CCCCC2C)nc2c1c(=O)n(C)c(=O)n2C (stereo not given)
8	COC(=O)c1ccccc1S(=O)c1snnc1C (stereo not given)

| screen / no. | 2 | 3 | 4 | 5 | 6 | 7 | 8 |
| --- | --- | --- | --- | --- | --- | --- | --- |
| KCNQ2 enhance | 1.2 | 0.06 | 0.08 | 1.2 | 0.32 | 1.6 | 0.98 |
| KCNQ2 enhance baseline | 0.13 | 0.09 | -0.07 | -1.5 | 0.07 | -0.97 | -0.04 |

9	O=c1nc(SCc2ccccc2Cl)nc(-c2ccc(Cl)cc2)[nH]1
14	O=C(CN1CCN(S(=O)(=O)c2ccc(F)cc2)CC1)Nc1ccc2c(c1)OCCO2
15	COc1ccc(NS(=O)(=O)c2ccc(O)c(C(=O)OCC(=O)NC(C)C3CC4CCC3C4)c2)cc1 (stereo not given)

| screen / no. | 9 | 14 | 15 |
| --- | --- | --- | --- |
| KCNQ2 enhance | 11* | 1.2 | 3.7 |
| KCNQ2 enhance baseline | -1.9* | 0.02 | -2.9 |

More compounds follow.
16	COc1cc([N+](=O)[O-])c(N2CCOCC2)c([N+](=O)[O-])c1OC
17	CN(C)CCOCCOc1ccc(Cl)cc1Br
18	CCCCN1C(=S)NC[C@@H]1Cc1ccc(O)cc1
19	CC1(C)OCC(C2CC(c3ccccc3)NS(=O)(=O)O2)O1 (stereo not given)
20	Nc1[nH]n2c(=O)cc(-c3ccccc3)nc2c1N=Nc1ccc(S(N)(=O)=O)cc1

| screen / no. | 16 | 17 | 18 | 19 | 20 |
| --- | --- | --- | --- | --- | --- |
| KCNQ2 enhance | 0.07 | 1.8 | 2.2 | 1 | 1.4 |
| KCNQ2 enhance baseline | 2.7 | 0.32 | -0.33 | 1.2 | 0.86 |

21	Cc1c(-c2cc(C(=O)O)c3ccccc3n2)cnn1C
22	CCOCCCNC(=O)CN1C(=O)COc2ccc(S(=O)(=O)N3CC(C)CC(C)C3)cc21 (stereo not given)
23	CCn1nnc(-c2ccccc2NS(=O)(=O)c2ccc(C(=O)OC)cc2)n1
24	CC(C)n1nc(C(=O)NCCCN2CCCC2=O)c2ccccc2c1=O
25	CCCNC(=O)C1(CC2CC(c3ccccc3)=NO2)CCNCC1 (stereo not given)

| screen / no. | 21 | 22 | 23 | 24 | 25 |
| --- | --- | --- | --- | --- | --- |
| KCNQ2 enhance | 1.8 | 0.11 | 0.21 | 1.8 | 0.1 |
| KCNQ2 enhance baseline | -0.38 | -1.2 | -0.72 | -1.4 | -0.66 |

26	COc1ccccc1C(=O)Nc1ccc2c(c1)nc1n2CCN(C2CCCCC2)C1
27	CSc1nc(O)c(C(c2ccccc2)c2c(O)nc(SC)[nH]c2=O)c(=O)[nH]1
28	Cc1c(C(=O)Nc2c(F)cccc2F)sc2ncn(CC(=O)N3CCCCC3)c(=O)c12
29	CCCOc1ccc(CNC(=S)NCc2ccc(OC(C)C)cc2)cc1
30	CN(C)C(=O)NC(NC(=S)Nc1ccccc1)C(Cl)(Cl)Cl (stereo not given)

| screen / no. | 26 | 27 | 28 | 29 | 30 |
| --- | --- | --- | --- | --- | --- |
| KCNQ2 enhance | 1.3 | 1.4 | 0.75 | 0.04 | 1.9 |
| KCNQ2 enhance baseline | -0.21 | 0.73 | 0.29 | -0.78 | -1.2 |

31	Cc1ccc(C)c(OCCC(=O)OCC(=O)c2ccc3c(c2)NC(=O)CO3)c1
32	COc1ccc(NC(=O)CCN2CCOCC2)c(OC)c1
33	O=Cc1ccc(OCC(=O)NCC2CCCO2)cc1 (stereo not given)
34	CN(C)c1ccc(/C=[N+](\[O-])C2N(c3ccccc3)C(=S)SC2(C)C)cc1 (stereo not given)
35	O=c1cc(CN2CCN(Cc3ccccc3)CC2)c2ccc(O)c(O)c2o1

| screen / no. | 31 | 32 | 33 | 34 | 35 |
| --- | --- | --- | --- | --- | --- |
| KCNQ2 enhance | 0.93 | 0.03 | 1.1 | 0.24 | 0.37 |
| KCNQ2 enhance baseline | 0.49 | 0.25 | 1.2 | 0.84 | -0.17 |

36	O=C(O)CCCC(=O)N1CCN(c2nc(-c3ccccc3)c3ccccc3n2)CC1
37	C=CCn1c(COc2ccc(Cl)cc2)nnc1SCC(=O)Nc1ccc(S(N)(=O)=O)cc1
38	CS(=O)(=O)c1nc(S(=O)(=O)c2ccc(Cl)cc2)c(N2CCC(O)CC2)s1
39	COc1ccc2[nH]c3c(c2c1)CCN1C(=O)N([C@@H](C)C(=O)NC2CCN(Cc4ccccc4)CC2)C(=O)[C@]31C
40	Cc1nccc(-c2sc(-c3cccs3)nc2C)n1

| screen / no. | 36 | 37 | 38 | 39 | 40 |
| --- | --- | --- | --- | --- | --- |
| KCNQ2 enhance | 0.3 | 0.84 | 0.86 | 0.31 | 0.32 |
| KCNQ2 enhance baseline | 1.4 | -1.4 | -0.29 | -1.7 | -0.4 |

41	Nc1nc(-c2cccc(Br)c2)cs1
42	CC(=O)c1ccc(N2Cc3ccccc3C3(CCOCC3)C2=N)cc1
43	CCN1CC(CN(C)Cc2nc(Cc3ccccc3)no2)CC1=O (stereo not given)
44	Cc1ccc(S(=O)(=O)N2CCN(c3ccccc3)CC2)cc1C
45	COC(=O)c1cc2c(=O)n3ccccc3nc2n(Cc2cccnc2)c1=N

| screen / no. | 41 | 42 | 43 | 44 | 45 |
| --- | --- | --- | --- | --- | --- |
| KCNQ2 enhance | 2.1 | 0.39 | 0.76 | 1.1 | 0.18 |
| KCNQ2 enhance baseline | 1.4 | 0.04 | 0.41 | -0.59 | 0.02 |

46	O=C1NC(=Nc2ccccc2)c2c1cccc2[N+](=O)[O-]
47	COc1ccc(-n2c(C)cc(SC)c(C(C)=O)c2=S)cc1
48	CC(C)(C)C(=O)NC1=NCCS1
49	Cc1ccc(N(Cc2ccccc2)C(=O)c2ccc(F)c(S(=O)(=O)N3CCOCC3)c2)cc1
50	CS(=O)(=O)N1CCCC(C(=O)N2CCc3ccccc3C2)C1 (stereo not given)

| screen / no. | 46 | 47 | 48 | 49 | 50 |
| --- | --- | --- | --- | --- | --- |
| KCNQ2 enhance | 0.88 | 0.67 | 0.87 | 0.01 | 0.25 |
| KCNQ2 enhance baseline | 0.78 | 1.2 | -3.6 | 0.24 | -3.7 |

51	COc1ccc(Br)cc1CNC(=O)CCN1C(=O)COc2ccccc21
52	COc1ccc(S(=O)(=O)NC2CC3CCC2C3)cc1 (stereo not given)
53	COc1cccc(NC(=O)N2C3CCCC2CC(NC(=O)C2CC2)C3)c1 (stereo not given)
54	COc1ccc(-c2csc(N3N=C(C)C(C)C3=O)n2)cc1 (stereo not given)
55	O=[N+]([O-])c1ccc(-c2c[nH]c(=S)[nH]2)cc1

| screen / no. | 51 | 52 | 53 | 54 | 55 |
| --- | --- | --- | --- | --- | --- |
| KCNQ2 enhance | 0.48 | 0.33 | 0.87 | 2.8 | 1.1 |
| KCNQ2 enhance baseline | -1.5 | 0.45 | 0.03 | 2.3 | 0.68 |

Four of the compounds above, with each value named:
52: COc1ccc(S(=O)(=O)NC2CC3CCC2C3)cc1 (stereo not given)
  KCNQ2 enhance: 0.33; KCNQ2 enhance baseline: 0.45

53: COc1cccc(NC(=O)N2C3CCCC2CC(NC(=O)C2CC2)C3)c1 (stereo not given)
  KCNQ2 enhance: 0.87; KCNQ2 enhance baseline: 0.03

54: COc1ccc(-c2csc(N3N=C(C)C(C)C3=O)n2)cc1 (stereo not given)
  KCNQ2 enhance: 2.8; KCNQ2 enhance baseline: 2.3

55: O=[N+]([O-])c1ccc(-c2c[nH]c(=S)[nH]2)cc1
  KCNQ2 enhance: 1.1; KCNQ2 enhance baseline: 0.68

Going on with the list:
56	O=C(NC(NC(=O)c1ccccc1)C(=O)c1ccccc1)c1ccccc1
57	S=c1nc(C2CCCCC2)[nH][nH]1
58	COc1cc(NC(=O)CSc2nc3ccccc3cc2Cc2ccccc2)cc(OC)c1
59	Nn1c(=S)[nH]c2sc3c(c2c1=O)CCCC3
60	O=S1(=O)CC/C(=N/Nc2ccc(C(F)(F)F)cn2)c2cc(F)ccc21

| screen / no. | 56 | 57 | 58 | 59 | 60 |
| --- | --- | --- | --- | --- | --- |
| KCNQ2 enhance | 0.13 | 0.88 | 0.86 | 0.24 | 0.52 |
| KCNQ2 enhance baseline | 1.2 | 0.61 | 1.2 | 0.77 | -0.14 |

61	Cc1ccc(CNc2ccc(Cl)cc2[N+](=O)[O-])cc1
62	CCCOc1ccc(-c2cc(C(F)(F)F)c(C#N)c(SCC(=O)O)n2)cc1
63	O=C1CCNCCN1[C@H](CO)c1ccccc1
64	CCN1CCC2(CC1)Oc1c(OC)cccc1C1CC(c3cccnc3)=NN12 (stereo not given)
65	Cc1cc(S(=O)(=O)Nc2ccccc2C)ccc1F
66	COC(=O)NCC(C)OC(=O)Nc1ccc(Cl)cc1 (stereo not given)
67	COc1ccc(NC(=O)Cn2cnc3sc(C)c(S(=O)(=O)N4CCN(C)CC4)c3c2=O)cc1OC
68	C=CCn1c(SC(C)C#N)nc2sc(CC)cc2c1=O (stereo not given)

| screen / no. | 61 | 62 | 63 | 64 | 65 | 66 | 67 | 68 |
| --- | --- | --- | --- | --- | --- | --- | --- | --- |
| KCNQ2 enhance | 1.4 | 0.58 | 0.98 | 0.75 | 0.45 | 1.6 | 2.3 | 0.07 |
| KCNQ2 enhance baseline | 0.71 | 0.26 | -1.1 | 1.5 | 1.9 | 0.9 | -0.84 | 1.2 |

Compound activity from PubChem.
